Yeast UUG start – modulators of start codon recognition fidelity in yeast. S. cerevisiae UUG-firefly luciferase reporter, luminescence/redox ratio. activity score, % at 18.7 µM. 350,000 tested, 0.13% active. AID 602363;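 active means replicate mean at a twofold rise or more, about +100% in these data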;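 further: firefly luciferase made from a UUG start codon reports start codon fidelity; reporter light over untreated wells divided by growth signal over untreated wells; some hits fall short of that in this replicate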
PABP polyA inh – blocks human PABP binding to poly(A) RNA | 290,000 tested, 1% active | fluorescence polarization | AID 2014 | P11940 | inhibition, % at 35 µM;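 active means 50% or more with normal probe brightness, or confirmed in later tests; inconclusive means above 50% with abnormal brightness, or retests that disagree; inactive means below 50% or failed in later tests; about a fifth of its hits are not listed in these tables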;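 further: calls also rest on retests at 20 µM and on dose response follow-up; controls were probe without protein and protein plus probe with vehicle; some compounds called inactive have numbers as strong as hits; many hits fall short of the cut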
Env fusion inh – blocks HIV Env-driven cell-cell fusion | 360,000 tested, 1.1% active | inhibition, % at 12.3 µM | AID 651610 | HeLa-JRFL Env/CEM21 cell fusion, luciferase;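 active means mean replicate inhibition score of at least 50 and every replicate individually at or above 50; inconclusive means only one of the two criteria met; inactive means mean below 50 and not all replicates reaching 50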;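 further: 0% = plate neutral controls and 100% = maraviroc near 300 nM; one replicate is shown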
Rce1 inh – blocks yeast Ras-converting enzyme. Q03530. yeast membranes, quenched prenylated peptide cleavage fluorescence. calls only. 290,000 tested, 0.27% active;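 active means fall in fluorescence gain of 50% or more versus controls, with final raw signal at or below 3038400; inconclusive means same 50% fall but final raw signal above 3038400; inactive means fall in fluorescence gain under 50%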;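 further: plate controls were neutral control wells for no effect and wells lacking membranes for full effect; tested at 10 µM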
Target sequence (Q03530 whole entry, looked up): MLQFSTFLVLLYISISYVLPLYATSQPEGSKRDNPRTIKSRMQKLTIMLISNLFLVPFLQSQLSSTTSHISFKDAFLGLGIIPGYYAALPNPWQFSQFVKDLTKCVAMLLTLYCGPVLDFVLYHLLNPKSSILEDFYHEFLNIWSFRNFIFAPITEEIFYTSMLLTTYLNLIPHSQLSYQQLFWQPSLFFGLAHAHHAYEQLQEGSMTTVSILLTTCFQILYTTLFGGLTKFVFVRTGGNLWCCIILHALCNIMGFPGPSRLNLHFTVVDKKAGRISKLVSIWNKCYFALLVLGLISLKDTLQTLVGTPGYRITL
MT1-MMP act inh – blocks activation of human MT1-MMP; P50281; 360,000 tested, 0.061% active; HT1080 RFP-PRO-GFP cells, GFP/RFP ratio fluorescence, overnight; percent of plate control window, DMSO zero; GFP/RFP ratio change, % at 20 µM;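 active means GFP/RFP ratio change of at least 30% with cell ATP level not reduced by more than half and red fluorescence within 50% of control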; further: strong numbers were not always called active
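Material: RFP-PRO-GFP reporter HT1080 cells. Dosing: single-point 20 µM compound, 1% DMSO. Controls: DMSO and RFP-L50D-GFP cell wells. Timing: cells overnight before dosing, compound overnight, 37 °C, 5% CO2. Measure: GFP/RFP fluorescence ratio.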
eIF4H FP inh – inhibitors of RNA binding by human eIF4H; eIF4H fluorescence polarization binding assay; inhibition, % at 35 µM; 290,000 tested, 0.94% active; AID 2012;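 active means 50% or more with normal probe brightness, or confirmed in later tests; inconclusive means above 50% with abnormal brightness, or retests that disagree; inactive means below 50% or failed in later tests; about a fifth of its hits are not listed in these tables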;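 further: calls also rest on retests at 20 µM and on dose response follow-up; 0% = protein and probe with vehicle and 100% = probe without protein; strong numbers were not always called active; many hits fall short of the cut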
CSC inhib – cancer stem cell inhibition. AID 2717. 300,000 tested, 1.1% active. inhibition, % at 7.5 µM. cancer stem cell-like cells viability, luminescence;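 active means mean at 75% or more and at least half the replicates too; inconclusive means mean and replicates disagree; tested in HMLE shEcad cells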;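 further: 0% = median of negative and 100% = median of positive control wells; the first replicate is given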
eIF4H FP inh retest – recorded beside eIF4H FP inh, whose call it bears; inhibition, %; compound at 20 µM; confirmation average;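 mean of two retest wells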
PABP polyA inh retest – also measured in PABP polyA inh; calls as there; inhibition, %; compound at 20 µM; confirmation repeats;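 mean of two retest wells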
MT1-MMP act inh RFP – second read-out of MT1-MMP act inh, no call of its own (marks repeat the call); RFP signal change, %; measured here: RFP expression control read;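 0 = vehicle wells; hits needed this value within 50% of zero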
Starred values were filed as active, the others as inactive; i = inactive; ? = inconclusive; / = no result given.

SMILES | Yeast UUG start | PABP polyA inh | Env fusion inh | Rce1 inh | MT1-MMP act inh | MT1-MMP act inh RFP | eIF4H FP inh | CSC inhib | others
CCc1nc2ccc(C(=O)Nc3ccc4c(c3)OCC(=O)N4)cn2c1N(C)C(=O)Cc1ccccc1 | -17 | / | 10 | / | -2 | 5 | / | /
CCOc1ccccc1-n1c(SCC(=O)NC(C)(C)C)nnc1-c1ccoc1C | 6 | -1 | -47 | i | 4 | -6 | 0 | -8
O=C(COC(=O)c1cccs1)Nc1ccccc1[N+](=O)[O-] | -13 | 11 | -8 | i | -1 | 3 | -3 | 0
O=C(Nc1cccc(O)c1)C1CC(c2cccc(Br)c2)=NO1 (stereo not given) | -2 | 3 | -18 | i | 1 | 3 | -4 | 5
CCn1cc(/C=N\NC(=O)C2(C)CC2(Cl)Cl)c(C)n1 (stereo not given) | 2 | 7 | / | i | 0 | 2 | 7 | -1
CCCOC(=O)CSc1nc(N2CCOCC2)c2c(c1C#N)CC(C)(C)OC2 | 0 | 3 | 17 | i | -2 | -5 | 3 | -3
CCc1cc(C(=O)NNC(=O)CCl)sc1C | -14 | 8 | 7 | i | -4 | 2 | -7 | 4
Cc1ccc(S(=O)(=O)N2CCN(C(=O)COC(=O)/C=C/c3ccc(C(F)(F)F)cc3)CC2)c(C)c1 | -15 | / | 8 | / | 2 | 5 | / | /
Cc1ccc(-c2nc(N)sc2-c2ccccc2)cc1C | / | -6 | 19 | i | -5 | -2 | -3 | 9
COC(=O)C1=Cc2cc(OC)cc([N+](=O)[O-])c2OC1N1CCOCC1 (stereo not given) | -9 | 19 | -21 | i | 8 | -2 | 11 | -20
COc1ccc(CC(=O)OCC(=O)NCc2ccco2)cc1OC | / | / | -4 | i | -5 | 0 | / | -5
CC(C)(C)OC(=O)N1CCC[C@H]1c1nnc(SCc2ccccc2Cl)o1 | 6 | -2 | / | i | -1 | -4 | -4 | -9
Cc1ccccc1C(=O)NC(CC(C)C)C(=O)Nc1cccc(S(=O)(=O)N(C)C)c1 (stereo not given) | / | 6 | -6 | i | -2 | 0 | -1 | -4
O=C1OC(Nc2ncccn2)c2ccccc21 (stereo not given) | -4 | -10 | -21 | i | 3 | 0 | -10 | -1
Cc1nn(Cc2ccccc2)c(Cl)c1C(=O)OCc1nnc(-c2ccccc2)o1 | -4 | -2 | 22 | i | 3 | -4 | -3 | -5
Cc1ccc(C2C3=C(CC(C)(C)CC3=O)NC3=C2C(=O)CC(C)(C)C3)o1 | / | 6 | / | i | 2 | 4 | 1 | -16
Cc1ccc(C)c(N2CCN(C(=O)c3cc4c(C)nc5ccccc5c4o3)CC2)c1 | -4 | 1 | 31 | i | -3 | -11 | -12 | 13
OC(COCc1ccc2c(c1)OCO2)CN1CCC(Cc2ccccc2)CC1 (stereo not given) | / | -5 | 6 | i | 3 | -4 | -5 | 37
O=c1[nH]n(-c2ncnc3c2cnn3-c2ccccc2)c(=O)c2ccccc12 | / | 8 | / | i | 2 | 1 | -1 | -11
O=S(=O)(c1ccc(Br)c2nsnc12)N1CCOCC1 | / | 0 | 9 | i | 1 | 5 | 9 | -3
O=C(NC1CCCCC1)n1c(=O)oc2ccccc21 | -15 | 12 | -10 | i | -2 | -4 | 2 | 10
Cc1ccc(NN=C2C(=O)OC(C)(C)OC2=O)c(C)c1 | -4 | 117 | -67 | i | 3 | 3 | -16 | -17 | eIF4H FP inh retest=-4;PABP polyA inh retest=2
Cc1ccc(NC(=O)Nc2cccnc2)cc1 | -18 | -7 | -136 | i | 0 | 1 | 2 | -12
O=C(NCCCN1CCN(c2ccccc2F)CC1)Nc1ccc(F)cc1 | -23 | -7 | / | i | 4 | -1 | 6 | -3
COc1ccc(-c2csc(Cc3nnc4n3CCCCC4)n2)cc1OC | / | 18 | / | i | 4 | 2 | -8 | -8
CCOC(=O)CC(=O)CSc1ccc2nnc(-c3ccccc3)n2n1 | -23 | -3 | / | i | -3 | -5 | 4 | -7
CCCN1CCN(CCCNC(=O)c2ccc(CS(=O)c3ccc(OC)cc3)o2)CC1 (stereo not given) | -5 | 8 | 8 | i | 0 | 3 | 4 | -5
COc1ccc(-c2cnc3nc[nH]c(=O)c3n2)cc1 | 7 | -4 | / | i | 3 | 4 | 8 | -11
COc1ccc(-c2noc(C3CCCN(C(=O)c4ccccc4C)C3)n2)cc1 (stereo not given) | -13 | -6 | 24 | i | 2 | -22 | -11 | -14
Clc1ccc(-c2noc(CSc3nnc(Cc4cccs4)n3-c3ccccc3)n2)cc1 | -19 | 0 | 28 | i | 3 | -7 | 0 | 60
Fc1ccc(-n2nnnc2-c2ccccc2Cl)cc1 | / | -3 | 2 | i | 0 | 0 | -8 | -8
CC1CCCCC1NC(=O)COc1ccccc1C#N (stereo not given) | -4 | / | / | / | -1 | 0 | / | -8
CCc1cccc(C)c1NC(=O)c1cccnc1 | -20 | -4 | -55 | i | -2 | 2 | -2 | -6
COc1ccc(-c2nc(C#N)c(N3CCC(C)CC3)o2)cc1 | 12 | 1 | 12 | i | 2 | -4 | -7 | 5
CCCCN(CC)CCNC(=O)c1cn(-c2ccc(Cl)cc2)c(=O)c2ccccc12 | -2 | -6 | -6 | i | 0 | 1 | -2 | -9
COc1ccc(-c2nc(C#N)c(NCCCn3ccnc3)o2)cc1OC | -21 | 9 | -77 | i | 5 | 1 | 9 | 5
CCOC(=O)c1cnc2c(Cl)cc(Cl)cc2c1NCCOCCO | -27 | -1 | / | i | -6 | -9 | -10 | -33
O=S1(=O)CC(O)C(N(CCO)C(=S)Nc2ccccc2)C1 (stereo not given) | -12 | -1 | 4 | i | 1 | 2 | 3 | -3
CCc1cc(SC#N)cc(C)c1NC(=O)CCl | / | 0 | -67 | i | 6 | -1 | -4 | 56
CCOC(=O)C1=C(C)N(C)C(=S)NC1c1ccc(Cl)cc1Cl (stereo not given) | / | -3 | 24 | i | -6 | -3 | 5 | /
N#CCSc1nnc2c(Cl)cc(Cl)cn12 | -15 | 0 | / | i | -2 | 3 | -11 | -13
O=C(COC(=O)c1ccc(OC(F)F)cc1)NCCNC(=O)COC(=O)c1ccc(OC(F)F)cc1 | -9 | 29 | / | i | -1 | 2 | 2 | -6
COc1ccc(CC(N)c2csc(Nc3ccc(C(=O)c4ccccc4)cc3)n2)cc1 (stereo not given) | -9 | / | 6 | / | -12 | -9 | / | /
COc1cccc(NC(=O)c2ccc(-n3cccn3)nc2)c1 | -15 | 5 | -56 | i | 8 | 0 | -4 | -8
CCCCn1c(SCc2cccc([N+](=O)[O-])c2)nc2ccsc2c1=O | / | -2 | / | i | -1 | -9 | -1 | 31
CCC(OC(C)=O)c1cc2c(cc1[N+](=O)[O-])OCCO2 (stereo not given) | / | 10 | 9 | i | -5 | 0 | -1 | -5
COc1ccc(NC(=O)C2C3C=CC4(CN(Cc5cccnc5)C(=O)C24)O3)c(OC)c1 (stereo not given) | -9 | 6 | -42 | i | 1 | 2 | 1 | -3
O=C(CN1C(=O)COc2ccc(S(=O)(=O)N3CCCC3)cc21)NCc1ccccn1 | / | -13 | -9 | i | 3 | 7 | -2 | -9
CC1=C(C(=O)OCc2ccccc2)C(c2ccc([N+](=O)[O-])cc2)NC(=O)N1 (stereo not given) | 17 | 1 | 31 | i | -3 | -13 | -11 | -7
COC(=O)c1ccc(Cn2cnc3c(N)ncnc32)cc1 | -8 | / | 14 | / | 10 | 8 | / | /
CCCNC(=O)c1cc(C2CCCCN2C(=O)CCc2ccccc2)on1 (stereo not given) | -2 | / | 1 | / | 7 | 3 | / | /
O=C(CN1C(=O)c2cccc3cccc1c23)NCc1ccccn1 | -11 | -1 | -37 | i | 1 | -1 | 6 | -12
COc1cc(-c2csc(CCn3nc(C)cc3C)n2)cc(OC)c1OC | / | 1 | 0 | i | -1 | -5 | -1 | -13
Cc1nc(SCC(=O)NCc2ccco2)c2oc3ccccc3c2n1 | -15 | 10 | / | i | 1 | -1 | -1 | 3
COc1cccc(C(O)c2nc(-c3cccc(C(C)C)c3)cs2)c1 (stereo not given) | -27 | / | 6 | / | -1 | -4 | / | /
COc1ccccc1-n1nnnc1SCC(=O)NCC1(N2CCOCC2)CCCCC1 | -2 | / | 7 | / | 0 | 2 | / | /
CCOc1ccccc1NC(=O)Cn1[nH]c(=O)c2ccccc2c1=O | / | 1 | / | i | 3 | -2 | -5 | 7
CCCCn1c(N)c(N(CCOC)C(=O)c2oc3ccc(OCC)cc3c2C)c(=O)[nH]c1=O | -24 | / | 11 | i | 3 | 1 | / | /
Cc1c(N=Cc2ccc(Cl)o2)c(=O)n(-c2ccccc2)n1C | / | 2 | / | i | 2 | 5 | -2 | -15
CSc1nc(N)nc(SCC(=O)C23CC4CC(CC(C4)C2)C3)c1C#N | -11 | 4 | ? | i | -18 | -22 | -4 | /
Next section.
SMILES | Yeast UUG start | PABP polyA inh | Env fusion inh | Rce1 inh | MT1-MMP act inh | MT1-MMP act inh RFP | eIF4H FP inh | CSC inhib | others
CCCc1nc2ccc([N+](=O)[O-])cc2[nH]1 | / | 2 | 8 | i | 5 | 5 | -17 | 1
O=C(Nc1cccc(S(=O)(=O)NC2=NCCC2)c1)C1CC(=O)N(c2ccc3c(c2)OCCO3)C1 (stereo not given) | -12 | -9 | 1 | i | -3 | 4 | 8 | 0
CN(C)S(=O)(=O)c1cccc(C(=O)OCC(=O)NCc2ccccc2)c1 | -9 | 1 | -89 | i | 3 | 3 | 9 | -8
Cc1cccc(OCCCC(=O)Nc2ccc(S(=O)(=O)Nc3ncccn3)cc2)c1C | 3 | -4 | -19 | i | -3 | 1 | 0 | -1
CCC1CCCCN1C(=O)CSc1nc2c([nH]c3ccccc32)c(=O)n1C (stereo not given) | -13 | 14 | / | i | 3 | -20 | -10 | -7
O=C(COc1ccc(S(=O)(=O)N2CCCCC2)cc1)NCc1cccnc1 | -8 | -4 | / | i | 2 | 0 | 0 | /
COc1ccc(NC(=O)C2CCCN(C(=O)c3ccc(Cl)cc3)C2)cc1S(=O)(=O)N(C)C (stereo not given) | 8 | / | 1 | / | 5 | -1 | / | /
COc1ccc(COc2ccsc2C(=O)Nc2ccc(Cl)cc2)cc1 | -3 | -6 | 11 | i | -2 | -3 | -6 | 29
COC(=O)C1=C(O)/C(=C\c2ccc(O)c(OC)c2)N=C1C | -13 | 83* | -25 | i | 2 | 5 | 56* | -17
CCCCNC(=S)N(CCCN(C)C)Cc1cc2cc3c(cc2[nH]c1=O)OCO3 | -12 | -1 | -5 | i | -4 | -1 | 13 | -4
CC1Cc2cc(/C(O)=C3/C(=O)C(=O)N(CCCn4ccnc4)C3c3ccc(Br)cc3)ccc2O1 (stereo not given) | -14 | 5 | -5 | i | 0 | 3 | -17 | -6

By substructure, those above containing bromine
SMILES | Yeast UUG start | PABP polyA inh | Env fusion inh | Rce1 inh | MT1-MMP act inh | MT1-MMP act inh RFP | eIF4H FP inh | CSC inhib | others
O=C(Nc1cccc(O)c1)C1CC(c2cccc(Br)c2)=NO1 (stereo not given) | -2 | 3 | -18 | i | 1 | 3 | -4 | 5
O=S(=O)(c1ccc(Br)c2nsnc12)N1CCOCC1 | / | 0 | 9 | i | 1 | 5 | 9 | -3
CC1Cc2cc(/C(O)=C3/C(=O)C(=O)N(CCCn4ccnc4)C3c3ccc(Br)cc3)ccc2O1 (stereo not given) | -14 | 5 | -5 | i | 0 | 3 | -17 | -6

Screening data (PubChem BioAssay)
